CtBP-E1A inh – CtBP/E1A binding inhibition; AlphaScreen GST-E1A/His-CtBP binding, 1536-well; active compounds read low; control for the full effect not named in the record; activity change, % (concentration not given with the values); 0.49% of 340,000 active; in the data active means activity change below about -65%; inconclusive means about -30% to -65%; inactive means above about -30%; further: on the % scale 0 is the no-effect control and ±100 the full control effect
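Homogeneous bead-based format: GST-tagged E1A captured on glutathione donor beads, His-tagged CtBP on nickel acceptor beads; compounds precede bead addition by 2 h at 37 °C.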
ClpP mod – qHTS Assay for Activators of ClpP; purified B. subtilis ClpP, FRET peptide cleavage, 20 min; Potency, µM (titrated, usually from 57.5 µM), inactives show at the highest dose activity change, negative = active; 1.9% of 340,000 active; AID 651965, 2013; active = well fitted falling curve with a large enough effect; inconclusive = small, poorly fitted or top-dose-only effect; inactive = no such curve, though single readings can be large or run the other way; further: potency means the concentration at half of the fitted maximal effect; the source files actives as falling curves though it sought activators and does not explain the sign; nearly all actives have a fitted effect of over 65% in size; many hits overshoot -100%
Target sequence (P80244 whole entry, looked up): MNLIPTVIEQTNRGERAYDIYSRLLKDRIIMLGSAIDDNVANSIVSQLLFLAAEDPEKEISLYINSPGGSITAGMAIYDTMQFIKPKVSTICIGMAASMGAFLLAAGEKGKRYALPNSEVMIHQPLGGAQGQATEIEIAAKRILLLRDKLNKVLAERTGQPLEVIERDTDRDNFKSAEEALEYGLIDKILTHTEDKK
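Buffer: 100 mM Tris/HCl pH8, 100 mM KCl, 0.05% low protease BSA, 2.5% glycerol, 0.01% Tween-20. ClpP 10 microg/mL final; 20 min RT; delta FRET normalized to ADEP and DMSO controls.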
Sfp inh – inhibitors of Bacillus subtilis Sfp phosphopantetheinyl transferase | Q9F4F7 | Biochemical Sfp PPTase activity, qHTS | Potency, µM, for inactives: max response, negative = inhibition, most hits filed as inhibitors | 3.5% of 310,000 active | AID 1490; active means well fitted inhibition curve with a large enough effect; inconclusive means small, poorly fitted or top-dose-only effect, or another doubt; inactive means no such curve, though single readings can be large or run the other way;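 further: the enzyme is Sfp with the accession as filed and its product quenches rhodamine fluorescence; potency means the concentration at half of the fitted maximal effect; 0% = enzyme reaction without inhibitor and -100% = no enzyme wells; top concentration of the series not given in the record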
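Sfp 15 nM + cpd, 15 min RT; start w/ rhodamine-CoA 5 uM, BHQ-2-YbbR 12.5 uM (final); 50 mM Hepes pH 7.6, 10 mM MgCl2, 0.01% NP-40, 0.01% BSA; read 525/598 nm at 0 and 30 min.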
Menin MLL FP FL – menin-MLL binding inhibition, fluorescein peptide; Fluorescence polarization, fluorescein-MLL peptide displacement from menin; FP activity change, % at 61.4 µM; 290,000 tested, under 10 active; inconclusive = falling polarisation curve, or a change in total fluorescence; inactive = total fluorescence flat and polarisation flat or rising; no compound was filed as active; the % refers to the polarisation; negative = inhibition;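 further: % of control where 0% means no effect; inhibitors lower the polarisation; unlabelled MLL peptide was the positive control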
gsp antag – antagonizes gsp, the McCune-Albright syndrome mutation; gsp-mutant cells, cAMP HTRF, 30 min; control for the full effect not named in the record; Potency, µM (titrated, usually from 76.9 µM), inactives show at the highest dose activity change, negative = inhibition, actives largely listed as inhibitors; 0.4% of 340,000 active; AID 624288; active = falling curve of any shape with a large fitted effect; inconclusive = falling curve, mostly with a smaller effect; inactive = flat or rising curve; cell line not stated here;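 further: intracellular cAMP measured with PDE inhibitor Ro 20-1724 present during compound exposure; potency means the concentration at half of the fitted maximal effect; on the % scale 0 is the no-effect control and ±100 the full control effect; nearly all actives have a fitted effect of over 65% in size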
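HTRF cAMP measurement after 30 min RT detection following 30 min, 37C compound treatment alongside […] (added as 300 uM solution) in G418-selected cells seeded at 2000/well and grown 16–24 h.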
gsp ag – agonists of gsp mutant (McCune-Albright syndrome) | gsp mutant cells, cAMP HTRF, 30 min; control for the full effect not named in the record | Potency, µM (highest dose often 76.9 µM), for inactives: at the highest dose activation (cAMP increase), most hits filed as activators | 0.13% of 340,000 active | AID 624287; active = well fitted activation curve with a large enough effect; inconclusive = small, poorly fitted or top-dose-only effect, or another doubt; inactive = no such curve, though single readings can be large or run the other way; cell line not stated here;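 further: phosphodiesterase inhibitor Ro 20-1724 added with compounds to block cAMP breakdown; potency means the concentration at half of the fitted maximal effect; nearly all actives have a fitted effect of over 60% in size; about a fifth of the inactives were tested at one dose only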
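Cells in DMEM/10% FBS with G418 were pretreated with compounds in DMSO plus […] (300 uM stock) for 30 min at 37C. cAMP was measured by HTRF (cAMP-d2 plus anti-cAMP antibody-K) after 30 min at room temperature.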
TRPV1 PAM – human TRPV1 potentiation; TRPV1-expressing cells, Fluo-8 calcium influx, capsaicin EC20 potentiation; host cell line not named in the record; control for the full effect not named in the record; potentiation, % at 8.33 µM; 0.02% of 320,000 active; active means potentiation above 80%; inconclusive means 30% to 80%; inactive means below 30%; further: 0% is about no effect
Target sequence (Q8NER1 whole entry, looked up): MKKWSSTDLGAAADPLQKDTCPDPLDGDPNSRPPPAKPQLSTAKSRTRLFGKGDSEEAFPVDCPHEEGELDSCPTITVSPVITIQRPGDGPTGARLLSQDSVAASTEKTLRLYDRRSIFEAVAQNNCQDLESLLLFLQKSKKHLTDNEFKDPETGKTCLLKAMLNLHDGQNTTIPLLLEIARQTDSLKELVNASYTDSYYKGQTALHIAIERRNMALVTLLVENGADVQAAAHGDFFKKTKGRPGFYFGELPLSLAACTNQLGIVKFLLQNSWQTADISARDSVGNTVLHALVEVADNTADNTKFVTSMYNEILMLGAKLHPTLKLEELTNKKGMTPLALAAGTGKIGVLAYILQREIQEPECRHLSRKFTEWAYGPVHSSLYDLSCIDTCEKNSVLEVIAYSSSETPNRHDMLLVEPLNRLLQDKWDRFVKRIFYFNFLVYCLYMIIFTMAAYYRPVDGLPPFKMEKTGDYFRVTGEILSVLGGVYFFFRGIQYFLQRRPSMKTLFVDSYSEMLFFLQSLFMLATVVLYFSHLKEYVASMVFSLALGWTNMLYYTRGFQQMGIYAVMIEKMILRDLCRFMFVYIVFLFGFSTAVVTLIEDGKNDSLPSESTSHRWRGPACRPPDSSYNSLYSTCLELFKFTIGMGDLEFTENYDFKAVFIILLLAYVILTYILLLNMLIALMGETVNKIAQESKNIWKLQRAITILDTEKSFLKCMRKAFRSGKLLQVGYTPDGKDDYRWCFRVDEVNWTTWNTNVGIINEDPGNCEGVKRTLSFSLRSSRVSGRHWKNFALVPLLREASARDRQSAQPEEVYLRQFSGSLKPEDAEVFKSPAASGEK
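Cells expressing TRPV1 were dye-loaded with Fluo-8 and read kinetically: 10 s baseline, 3 min after compound (agonist portion), then 2 min after EC20 capsaicin (allosteric enhancer portion). Calcium-bound dye fluorescence at 480/520 nm.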
An asterisk follows results filed as active; u = inconclusive; x = not tested or not shown; & = joins results of further samples; [ ] = remark or other dose.

Results follow in this order: ClpP mod, gsp antag, Menin MLL FP FL, TRPV1 PAM, gsp ag, Sfp inh, CtBP-E1A inh
> COc1cc(OC)c2c(c1O)OC(c1ccccc1)CC2=O (stereo not given)
→ -2.9%, -7%, 4.5, 20, x, -1%, -4
> O=C(COc1cccnc1[N+](=O)[O-])N1CCN(S(=O)(=O)c2ccc3ccccc3c2)CC1
→ -4.0%, 0%, 7.4, 2, -13%[15.4 µM], 9%, -6
> COC(=O)c1ccc(-c2noc(CN(C)Cc3ccncc3C)n2)cc1
→ -1.5%, -12%, -1.2, 3, -2%, -22%, x
> CCN1C(=O)NC(c2ccccc2)(c2ccccc2)C1=O
→ 1.3%, 16%, x, x, -20%, x, 3
> CCOc1ncccc1C(=O)OCc1cc(=O)oc2c(C)c(C)ccc12
→ -1.7%, 5%, 3.4, -18, 10%, 1%, -1
> CC(=O)N1CCc2cc(NS(=O)(=O)c3cccs3)ccc21
→ -2.7%, -10%, -1.8, 0, -22%, -8%, -3
> CCOC(=O)c1c(C)[nH]c(C)c1C(=O)COC(=O)[C@@H](NC(=O)c1ccco1)C(C)C
→ 2.1%, 5%, x, x, 16%[15.4 µM], x, 3
> COc1ccc(CN(Cc2ccc(C(=O)O)cc2)C(=S)Nc2ccccc2F)cc1OC
→ x, -13%, -0.8, 9, 25%, 50µM*, 7
> Cc1ccc(C(=O)NCCSc2ccccc2)cc1S(=O)(=O)Nc1ccccc1
→ -0.1%, u, 0.4, u, -1%, 7%, -3
> Cc1ccc(S(=O)(=O)NC(=O)c2ccccc2)cc1C(C)C
→ x, -7%, 1.0, 13, -16%, 1%, -10
> COc1ccc(CNC(=O)COC(=O)c2ccc(C(=O)c3ccccc3)cc2)cc1
→ 0.6%, -6%, x, x, 10%[15.4 µM], x, 8
> COc1ccc(/C=C2\SC(=S)N(CCC(=O)N3CCOCC3)C2=O)cc1
→ -0.7%, -21%, x, -5, 17%[15.4 µM], 11%, 0
> COCCn1c(SCC(=O)c2cc(C)n(C)c2C)nc2ccccc2c1=O
→ -1.7%, -15%, -5.3, 0, 0%[15.4 µM], 4%, -10
> O=c1nc(SCc2c(F)cccc2Cl)nc(-c2ccc(Cl)cc2)[nH]1
→ x, -1%, 0.8, 1, 5%[15.4 µM], -5%, -2
> CN(C)c1ccc(CNC(=O)CCNS(=O)(=O)c2cc(Br)cnc2N)cc1
→ -12%, 1%, x, 13, 18%, -1%, -8
> CCOC(=O)/C=C/C(=O)OCC(=O)NC(c1ccccc1)c1ccccc1
→ -1.5%, 11%, 9.2, 2, -42%[inhibitor], u, 14
> CCOC(=O)C1CCN(C(=O)COC(=O)c2cc([N+](=O)[O-])ccc2N2CCOCC2)CC1
→ 1.8%, 6%, x, 29, 1%, x, 2
> COC(=O)C1CCCN1C(=O)COc1ccc(Br)cc1Cl (stereo not given)
→ -2.3%, -7%, 3.4, 27, 3%, 15%, -11
> CCCN(CCC)CCCNC(=O)Cn1cnc2sc(C)c(S(=O)(=O)N3CCOCC3)c2c1=O
→ x, 9%, 1.4, 0, 11%, 0%, 6
> CNC(=S)NC1CC2CCCC(C1)N2Cc1ccco1 (stereo not given)
→ -1.2%, 6%, -4.7, -7, 5%, 15%, 6
> CCC1CN(C(=O)Nc2ccc(C)cc2)c2cc(C)ccc2O1 (stereo not given)
→ x, -12%, -9.5, -9, 22%, 18%, -7
> COCCOCCn1c(/C=C/c2ccccc2)nc2ccccc21
→ x, -14%, 0.1, -22, -3%[15.4 µM], 18%, 0
> Cc1ccc(N(CC(=O)NC2CCCC2)C(=O)CCC(=O)Nc2nc(C)cs2)cc1
→ x, 2%, x, 5, -10%[15.4 µM], 1%, 6
> CC1(C)S[C@@H]2[C@H](NC(=O)C(C(=O)O)c3ccccc3)C(=O)N2[C@H]1C(=O)O (stereo not given in full)
→ 1.4%, 0%, 4.5, 8, x, -7%, 3
> CCCCn1c(SCC(=O)N2c3ccccc3CCc3ccccc32)nc2c1c(=O)n(C)c(=O)n2C
→ -1.1%, -1%, -1.4, -31, -2%, -7%, 2
> O=C(Nc1ccc(NS(=O)(=O)c2ccccc2)cc1)c1ccccc1
→ -7.2%, -32%, -0.9, -27, -51%[inhibitor], 19%, -3
> O=C(NCc1ccc2c(c1)OCO2)c1nnc(Cc2ccc(Cl)cc2)o1
→ 0.2%, 7%, -0.5, -23, -29%, 5%, -2
> Cc1ccccc1CC1(CO)CCCN(C(=O)c2ccccc2Cl)C1 (stereo not given)
→ x, -2%, 0.9, 6, 14%[15.4 µM], 15%, 3
> CN1C(=O)CCC2(c3ccccc3)CC=C(O)C=C12 (stereo not given)
→ x, 8%, x, x, -33%, x, 0
> Clc1cccc(CNCCCSc2ncccn2)c1Cl
→ x, 9%, 3.3, 0, -23%, -6%, 7

The last 2 records of the part above are carried over, then new ones follow.
Results follow in this order: ClpP mod, gsp antag, Menin MLL FP FL, TRPV1 PAM, gsp ag, Sfp inh, CtBP-E1A inh
> CN1C(=O)CCC2(c3ccccc3)CC=C(O)C=C12 (stereo not given)
→ x, 8%, x, x, -33%, x, 0
> Clc1cccc(CNCCCSc2ncccn2)c1Cl
→ x, 9%, 3.3, 0, -23%, -6%, 7
> O=C(NCCCNC(=O)c1cccs1)c1cccs1
→ -1.8%, 6%, 2.9, 4, u, -12%, 2
> CCOC(=O)Cn1c(=O)oc2cc(S(=O)(=O)NC(C)c3ccccc3)ccc21 (stereo not given)
→ -2.3%&0.0%, -4%, -0.8, -2, 3%, 10%, 2
> COCCCNC(=S)NNC(=O)c1cccnc1
→ 0.9%, 8%, -0.7, 3, -1%, -1%, 4
> Cc1cccc(-c2oc3ccccc3c2C#CCCCCO)c1
→ 4.6%, -1%, 0.5, -15, x, -7%, 6
> N#Cc1cccc(Oc2ccc(-c3cnc4ccccc4n3)cc2)c1C#N
→ u, u, -0.9, 2, -1%[15.4 µM], u, -13
> CCOC(=O)C1(Cc2cccc(OC)c2)CCN(C/C=C/c2ccccc2)CC1
→ x, -10%, -0.7, -14, -12%, 5%, -19
> Cc1ccc(NC(=O)C(c2ccccc2)N2CCN(CC(=O)NC3CC3)CC2)cc1Cl (stereo not given)
→ -0.9%, -12%, x, -4, -37%, x, 1
> COc1ccc2oc(C(=O)N3CCN(S(=O)(=O)c4c(C)c(C)cc(C)c4C)CC3)c(C)c2c1
→ -20%, 4%, x, x, -16%, x, x
> Cc1ccccc1OC1CCN(C(=O)c2cc(COc3ccccc3)on2)CC1
→ -0.3%, -19%, x, 23, 19%, 8%, 25
> Cc1ccc(C)c(C(C)NC(=O)c2ccncc2)c1 (stereo not given)
→ -2.1%, 4%, -0.3, 5, -6%, 17%, x
> Cc1nnc(SCCn2c(N3CCCCC3)nc3c2c(=O)[nH]c(=O)n3C)s1
→ -0.5%, 8%, 4.1, 7, -52%[inhibitor], -4%, 7
> COCCCNC(=O)CSc1nc2sc(C(=O)OC)c(C)c2c(=O)n1N
→ x, -2%, -9.7, 6, u, 5%, 0
> CCC(CC)C(=O)c1c[nH]c(C(=O)O)c1
→ x, 9%, 1.7, -7, 0%[15.4 µM], 7%, 2
> CCC(C)OC(=O)C(C)Oc1ccc(-c2ccccc2)cc1 (stereo not given)
→ -3.2%, 1%, -0.1, 10, 10%, 3%, x
> COc1ccc2nc(NC(=O)c3ccc(-n4nc(C)cc4C)cc3)sc2c1
→ -103%, 11%, 3.7, -5, -15%, 1%, 9
> CC1(C)CC(=O)C2=C(C1)Nc1ccccc1NC2c1cc(Cl)ccc1O (stereo not given)
→ 0.9%, -6%, 1.2, 0, 2%[15.4 µM], 6%, 2
> COc1ccc(S(=O)(=O)N2CCOCC2)cc1NS(=O)(=O)c1ccc(F)c(F)c1
→ -2.2%, 6%, x, x, u, x, -7
> COc1ccc(CCC(C)Nc2cccc(C)c2)cc1 (stereo not given)
→ -1.0%, -4%, 2.7, 3, 41%, -1%, -1
> CCN(CC)C(=O)C1=C(C)N(Cc2ccc(C(C)(C)C)cc2)C(=O)C(CC(=O)NCc2cccs2)C1 (stereo not given)
→ 1.0%, x, x, x, -31%[inhibitor], x, -2
> CC(C)COc1cccc(C(=O)NC(=S)NCc2cccnc2)c1
→ 1.5%, -18%, 4.2, -8, 6%, 11%, 5
> COC(=O)c1c(-c2ccc(Br)cc2)noc1N
→ -0.9%, 5%, 2.2, 1, 3%, 8%, 4
> CCC(C)C(=O)Nc1ccc(OC)cc1OC (stereo not given)
→ -3.4%, 12%, 3.6, -2, u, 20%, -5
> Cc1cc(NC(=O)CN2C(=O)[C@@H]3[C@H](C2=O)[C@@H]2C[C@H]3C(Br)C2Br)no1 (stereo not given in full)
→ x, 9%, 1.2, x, u, 13%, 0

Some of these compounds in order of their number in Menin MLL FP FL, highest first.
mol,Menin MLL FP FL
CC(C)COc1cccc(C(=O)NC(=S)NCc2cccnc2)c1,4.2
O=C(NCCCNC(=O)c1cccs1)c1cccs1,2.9
Cc1cccc(-c2oc3ccccc3c2C#CCCCCO)c1,0.5

An excerpt of these results, tab-delimited:
molecule	ClpP mod	gsp antag	Menin MLL FP FL	TRPV1 PAM	gsp ag	Sfp inh	CtBP-E1A inh
COc1ccc2oc(C(=O)N3CCN(S(=O)(=O)c4c(C)c(C)cc(C)c4C)CC3)c(C)c2c1	-20%	4%	x	x	-16%	x	x
N#Cc1cccc(Oc2ccc(-c3cnc4ccccc4n3)cc2)c1C#N	u	u	-0.9	2	-1%[15.4 µM]	u	-13
Cc1ccc(C)c(C(C)NC(=O)c2ccncc2)c1 (stereo not given)	-2.1%	4%	-0.3	5	-6%	17%	x
